# gsp ag: qHTS for Agonist of gsp, the Etiologic Mutation Responsible for Fibrous Dysplasia/McCune-Albright Syndrome: qHTS. gsp mutant cells, cAMP HTRF, 30 min; control for the full effect not named in the record. Potency, µM (top dose mostly 76.9 µM), for the others: at the highest dose activation (cAMP increase), actives largely listed as activators. 0.13% of 340,000 active. AID 624287, 2012; active = well fitted activation curve with a large enough effect; inconclusive = small, poorly fitted or top-dose-only effect, or another doubt; inactive = no such curve, though single readings can be large or run the other way; cell line not stated here;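 also: phosphodiesterase inhibitor Ro 20-1724 added with compounds to block cAMP breakdown; potency is read from the fitted curve at half-maximal effect; nearly all actives have a fitted effect of over 60% in size; about a fifth of the inactives were tested at one dose only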
#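 Cells in DMEM/10% FBS with G418 were pretreated with compounds in DMSO plus […] (300 uM stock) for 30 min at 37C. cAMP was measured by HTRF (cAMP-d2 plus anti-cAMP antibody-K) after 30 min at room temperature.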
# Sfp inh: qHTS Assay for Inhibitors of Bacillus subtilis Sfp phosphopantetheinyl transferase (PPTase); 4'-phosphopantetheinyl transferase ffp (Bacillus subtilis), Q9F4F7; Biochemical Sfp PPTase activity, qHTS; Potency, µM, for the others: max response, negative = inhibition, most hits filed as inhibitors; 3.5% of 310,000 active; active = well fitted inhibition curve with a large enough effect; inconclusive = small, poorly fitted or top-dose-only effect, or another doubt; inactive = no such curve, though single readings can be large or run the other way;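 also: the enzyme is Sfp with the accession as filed and its product quenches rhodamine fluorescence; potency is read from the fitted curve at half-maximal effect; 0% = enzyme reaction without inhibitor and -100% = no enzyme wells; top concentration of the series not given in the record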
#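 Fluorescence-quenching assay with 15 nM Sfp, 5 uM rhodamine-CoA and 12.5 uM BHQ-2-labelled ybbR peptide in pH 7.6 Hepes/MgCl2 buffer. Enzyme was pre-incubated with compound for 15 min at room temperature. Rate was taken from the 30-min fluorescence change (525/598 nm).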
# gsp antag: qHTS for Antagonists of gsp, the Etiologic Mutation Responsible for Fibrous Dysplasia/McCune-Albright Syndrome: qHTS; 0.4% of 340,000 active; Potency, µM (series often up to 76.9 µM), without a hit: at the highest dose activity change, negative = inhibition, actives largely listed as inhibitors; gsp-mutant cells, cAMP HTRF, 30 min; control for the full effect not named in the record; active = falling curve of any shape with a large fitted effect; inconclusive = falling curve, mostly with a smaller effect; inactive = flat or rising curve; cell line not stated here;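 also: intracellular cAMP measured with PDE inhibitor Ro 20-1724 present during compound exposure; potency is read from the fitted curve at half-maximal effect; % is scaled to controls: 0 for no effect and ±100 for the full control effect; nearly all actives have a fitted effect of over 65% in size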
#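 Cells, 2000/well, grown 16–24 h in DMEM 10% FBS with 0.5 mg/ml G418, then compounds plus […] (300 uM addition stock), 30 min at 37C. cAMP read by HTRF (cAMP-d2 and anti-cAMP antibody-K in lysis buffer) after 30 min RT.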
# TRPV1 PAM: HTS Assay for Compounds that Act as Potentiators of the Vanilloid Receptor 1 | Transient receptor potential cation channel subfamily V member 1 (Homo sapiens), Q8NER1 | TRPV1-expressing cells, Fluo-8 calcium influx, capsaicin EC20 potentiation; host cell line not named in the record; control for the full effect not named in the record | potentiation, % at 8.33 µM | 0.02% of 320,000 active | AID 540277, 2011; active means potentiation above 80%; inconclusive means 30% to 80%; inactive means below 30%; also: 0% is about no effect
# Target sequence (Q8NER1 whole entry, looked up): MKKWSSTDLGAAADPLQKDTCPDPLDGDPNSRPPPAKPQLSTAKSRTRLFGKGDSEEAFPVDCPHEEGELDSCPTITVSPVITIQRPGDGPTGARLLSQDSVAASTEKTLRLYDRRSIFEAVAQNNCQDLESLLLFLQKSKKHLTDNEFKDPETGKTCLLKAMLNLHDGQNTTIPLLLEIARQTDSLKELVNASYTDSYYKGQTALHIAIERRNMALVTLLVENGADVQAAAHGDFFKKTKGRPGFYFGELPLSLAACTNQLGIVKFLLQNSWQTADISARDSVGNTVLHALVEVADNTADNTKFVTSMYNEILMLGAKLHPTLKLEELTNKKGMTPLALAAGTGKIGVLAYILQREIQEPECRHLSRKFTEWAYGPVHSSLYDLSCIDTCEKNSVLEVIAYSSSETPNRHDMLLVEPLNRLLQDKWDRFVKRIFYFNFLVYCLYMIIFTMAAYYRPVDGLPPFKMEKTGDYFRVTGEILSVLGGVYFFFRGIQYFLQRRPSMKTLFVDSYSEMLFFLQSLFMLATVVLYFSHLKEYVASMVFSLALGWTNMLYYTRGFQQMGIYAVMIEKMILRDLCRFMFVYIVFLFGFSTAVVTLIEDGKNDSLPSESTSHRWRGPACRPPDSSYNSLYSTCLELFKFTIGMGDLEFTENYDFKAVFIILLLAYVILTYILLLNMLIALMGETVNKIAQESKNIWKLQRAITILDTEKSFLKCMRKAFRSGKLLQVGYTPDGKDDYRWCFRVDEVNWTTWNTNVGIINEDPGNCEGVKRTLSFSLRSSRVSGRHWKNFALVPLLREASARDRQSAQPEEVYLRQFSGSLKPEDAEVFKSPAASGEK
#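 Fluo-8 calcium influx in TRPV1-expressing cells, kinetic read (ex 480/em 520 nm). Compound added and read 3 min for agonist activity, followed by capsaicin at EC20 final and 2 min further read for enhancement.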
# Menin MLL FP FL: qHTS Assay for Inhibitors Targeting the Menin-MLL Interaction in MLL Related Leukemias: Competition With Fluorescein Labeled MLL-derived Peptide; Fluorescence polarization, fluorescein-MLL peptide displacement from menin; FP activity change, % at 61.4 µM; 290,000 tested, under 10 active; inconclusive = falling polarisation curve, or a change in total fluorescence; inactive = total fluorescence flat and polarisation flat or rising; no compound was filed as active; the % refers to the polarisation; negative = inhibition;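 also: % of control where 0% means no effect; inhibitors lower the polarisation; unlabelled MLL peptide was the positive control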
# ClpP mod: qHTS Assay for Activators of ClpP; ATP-dependent Clp protease proteolytic subunit (Bacillus subtilis (strain 168)), P80244; purified B. subtilis ClpP, FRET peptide cleavage, 20 min; Potency, µM (highest dose often 57.5 µM), without a hit: at the top dose activity change, negative = active; 1.9% of 340,000 active; active = well fitted falling curve with a large enough effect; inconclusive = small, poorly fitted or top-dose-only effect; inactive = no such curve, though single readings can be large or run the other way; also: potency is read from the fitted curve at half-maximal effect; the source files actives as falling curves though it sought activators and does not explain the sign; nearly all actives have a fitted effect of over 65% in size; many hits overshoot -100%
# Target sequence (P80244 whole entry, looked up): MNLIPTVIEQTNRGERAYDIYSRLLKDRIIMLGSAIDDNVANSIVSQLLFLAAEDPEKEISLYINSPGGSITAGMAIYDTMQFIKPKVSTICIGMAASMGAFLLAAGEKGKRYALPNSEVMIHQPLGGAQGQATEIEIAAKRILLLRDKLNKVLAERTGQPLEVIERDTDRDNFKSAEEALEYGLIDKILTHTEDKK
#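 FRET quenching reversal measured ClpP activation: 10 microg/mL B. subtilis ClpP at pH 8 with the FRET-FV decapeptide, read at 430 nm after 320 nm excitation. The 20-min minus 0-min signal was scaled between DMSO/no-enzyme wells and ADEP (5.8 microM final).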
# CtBP-E1A blk: qHTS Assay for Inhibitors of the CtBP/E1A Interaction; CtBP / adenovirus E1A interaction (AlphaScreen); 0.49% of 340,000 active; activity change, % (test concentration not listed); AlphaScreen GST-E1A/His-CtBP binding, 1536-well; stronger effect = lower value; control for the full effect not named in the record; in the data active means activity change below about -65%; inconclusive means about -30% to -65%; inactive means above about -30%; also: % is scaled to controls: 0 for no effect and ±100 for the full control effect; compound concentration not given in the record
#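 GST-E1A and His-tagged CtBP (125 nM each as 5X stock) were preincubated with pin-transferred compound for 2 h at 37 °C in the dark, then glutathione donor and nickel acceptor beads were added for 1 h before AlphaScreen reading.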
# * = called active by the depositor; ? = inconclusive; . = not tested or not shown; & = joins results of further samples; [ ] = another dose, or the depositor's remark.
SMILES,gsp ag,Sfp inh,gsp antag,TRPV1 PAM,Menin MLL FP FL,ClpP mod,CtBP-E1A blk
COCCCn1c(SCC(=O)NC2CCCCC2)nnc1-c1ccncc1,3%,10%,12%,4,2.1,-2.3%,11
O=C(c1ccc(-c2nnc(-c3ccccc3)o2)cc1)N1CCCCCC1,5%,4%,-7%,-6,2.1,0.1%,2
O=C(NCC1CCCO1)C(c1ccc(F)cc1)N(CCCN1CCOCC1)C(=O)c1ccc(-c2ccccc2)[nH]1 (stereo not drawn),-9%[15.4 µM],10%,-8%,-6,-0.9,.,-3
COc1ccc(/C(C)=N\NC(=O)CSc2nnc(C)s2)cc1,-2%,18%,23%,-1,-0.3,-10%,-25
COc1ccccc1N1C(=O)c2ccc(C(=O)Nc3cccc(C(C)=O)c3)cc2C1=O,-8%,-22%,-14%,-3,1.5,2.5%,0
CCCOc1ccccc1OCC(=O)Nc1ccc(S(=O)(=O)N2CCCCC2)cc1,2%[15.4 µM],.,-19%,-17,.,0.2%,-4
COc1ccc(N(Cc2ccccc2)S(=O)(=O)c2cccc(C(=O)O)c2)cc1,-22%,20%,-24%,-13,-0.8,1.1%,.
O=C(/C=C/Nc1ccccc1)c1cnc(-c2ccccc2)s1,-14%,21%,4%,5,?,-3.9%,10
COc1ccc(NC(=O)[C@@H]2CCCN2C(=O)[C@@H]2Cc3ccccc3CN2C(=O)OC(C)(C)C)cc1,12%,12%,-16%,-17,.,.,-2
COc1ccc(NC(=O)C2CC(c3cccc(Br)c3)=NO2)cc1OC (stereo not drawn),-3%[15.4 µM],-12%,-17%,-3,-3.7,0.8%,-5
O=c1c(Cl)c(NCCO)cnn1-c1cccc(Cl)c1,-28%,-8%,-2%,-12,0.5,.,-16
CCCS(=O)(=O)N1CCCC(C(=O)Oc2ccc(C)c(C)c2)C1 (stereo not drawn),6%[15.4 µM],10%,4%,10,1.0,-1.5%,0
Cc1ccc(NC(=O)CN2CCCCCC2)cc1[N+](=O)[O-],2%[15.4 µM],18%,22%,-6,1.0,.,-8
CCOC(=O)N1CCN(S(=O)(=O)c2ccc(C(=O)Nc3sc4c(c3C(=O)OC)CCN(C)C4)cc2)CC1,6%,8%,3%,1,.,-0.4%,-6
CCOC(=O)c1ccc(NC(=O)N2CCOCC2)cc1,15%[15.4 µM],4%,-6%,0,-4.6,-0.2%,-3
CC1CCN(C(c2ccc(N(C)C)cc2)c2nnnn2Cc2ccccc2)CC1 (stereo not drawn),19%,10%,6%,-2,?,1.4%,-12
CN(Cc1c(F)cccc1Cl)C(=O)c1cc2ccccc2o1,-5%,-21%,-5%,-3,5.8,-1.3%,.
COCCCNc1nc2nonc2nc1N1CCN(Cc2cccc(C)c2)CC1,?,9%,-21%,1,-18,.,-2
Cc1cc(-c2ccccc2)nc(=O)[nH]1,12%,13%,6%,-8,2.1,-14%,-4
Cc1ccc(-c2csc(NC(=O)CSC3=NCCS3)n2)cc1,14%,?,?,-4,-1.0,1.6%,-3
CC(C)CC(=O)NC(=S)Nc1ccc(N2CCOCC2)c(Cl)c1,-15%,5%,-28%,-8,2.7,.,-2
CCN(CC)S(=O)(=O)c1cccc(C(=O)Oc2cccnc2)c1,12%,18%,-12%,23,-2.9,3.8%,-12
O=C(NC1CCCC1)C(c1ccccc1)N(Cc1ccccc1)C(=O)c1csnn1 (stereo not drawn),5%,7%,-6%,?,-1.7,.,5
CCOC(=O)N1CCC(Nc2c(N3CCN(c4cc(Cl)ccc4C)CC3)c(=O)c2=O)CC1,-14%,-1%,-31%,-5,4.7,1.5%,-2
CSc1ncnc2c1ncn2CCCN(C)Cc1ccco1,-64%[inhibitor],.,.,.,.,-1.3%,-1
CCOC(=O)C1C(c2ccc(C(=O)O)cc2)NC(=O)NC1(O)C(F)(F)F (stereo not drawn),-19%,8%,9%,4,0.7,.,4
O=C(CNCC1CCCO1)N1CCCCCC1 (stereo not drawn),3%[15.4 µM],?,-3%,-4,4.8,-14%,14
CCCCN(CCCNC(=O)Cn1ncc2ccsc2c1=O)Cc1ccccc1,-30%,-13%,6%,-25,-0.6,-2.0%,-3
COC(=O)c1ccc2c(=O)n(Cc3ccco3)c(SCC(=O)Nc3cc(C)on3)nc2c1,?,?,6%,-1,2.5,-0.8%,7
CCOCCCNC(=O)C(NC(=O)Cc1cccs1)c1ccc(Cl)cc1 (stereo not drawn),27%[15.4 µM],13%,7%,1,-3.6,.,8
CCc1cccc(NC2c3ccccc3C(=O)N2c2cccnc2)c1 (stereo not drawn),28%,1%,-2%,28,1.3,-2.5%,-5
Cc1ccc(-c2cc(C(=O)N3CCOCC3)c3cc(C)ccc3n2)cc1,16%[15.4 µM],6%,-12%,-10,-0.2,.,-1
CCOC(=S)SCc1cn2ccc(C)cc2n1,11%[15.4 µM],-14%,-3%,-10,2.4,-9.1%,-26
CCC(=O)c1ccc(OCC(=O)N(CC)CC(=O)Nc2ccccc2OC)cc1,26%,.,-9%,-2,.,-1.3%,5
O=C(NNC(=O)c1ccc(-c2ccccc2)cc1)c1ccccc1,2%[15.4 µM],1%,14%,11,3.9,1.5%,-3
COCCn1nnnc1CN1CCC(Cc2ccccc2)CC1,?,15%,6%,-4,3.4,-3.4%,-6
COc1ccc(NC(=O)CN(C)S(=O)(=O)c2cccs2)cc1,-45%[inhibitor],6%,8%,-2,1.0,1.0%,4
COc1ccc(NC(=O)c2ccccn2)cc1OC,15%,-15%,4%,-2,-9.2,0.3%,.
Cc1ccc(S(=O)(=O)N2C[C@H]3C(=O)C[C@@H](c4ccc(Cl)cc4)N(S(=O)(=O)c4ccccc4C)[C@H]3C[C@H]2c2ccc(Cl)cc2)cc1,23%,.,.,.,.,-1.1%,1
CCOc1ccc(-c2cc(C(=O)Nc3ccc4c(c3)OCCO4)c3ccccc3n2)cc1,-42%[inhibitor],6%,-10%,2,1.7,-1.9%,-2
CCCNC(=O)c1cc2c(C(F)(F)F)nn(C)c2s1,-37%[inhibitor],-2%,1%,4,0.0,-9.5%,11
CC(C)c1ccc(NC2CCCN(C(=O)c3ccc(Cn4cnnn4)cc3)C2)cc1 (stereo not drawn),-5%,23%,-4%,-2,0.8,0.3%,-1
Fc1ccccc1N1CCN(CC2CC3C=CC2C3)CC1 (stereo not drawn),-28%,-13%,5%,-11,-0.8,0.5%,7
CN1C(=O)c2ccccc2C(C(=O)O)C1c1cccc(F)c1 (stereo not drawn),-17%,9%,13%,9,-1.7,-0.1%,5
O=C(Nc1ccc(OC(F)(F)F)cc1)C1CCCN(C(=O)c2ccc(Cl)cc2)C1 (stereo not drawn),?,.,?,-11,.,-0.4%,9
CCCC(=O)Nc1ccc(Nc2ccccc2)cc1,-11%,-3%,10%,0,5.4,-13%,-2
O=C(Nc1nnc(S(=O)(=O)N2CCCCCC2)s1)c1ccccc1,?,10%,-8%,-11,0.6,-14%&-5.6%,-28
COc1ccccc1N(CC(=O)Nc1ccccc1C)S(C)(=O)=O,-43%[inhibitor],24%,4%,-1,-1.6,-1.1%,-11
COc1ccc(C(CNC(=O)c2ccc(Cl)c(NC(=O)c3cccs3)c2)N2CCCC2)cc1 (stereo not drawn),28%,.,15%,-10,.,-2.7%,5
Cc1ccc(Cl)cc1NC(=O)CSc1nncn1-c1ccccn1,-7%[15.4 µM],8%,0%,22,1.4,0.8%,13
CCCC(CCC)C(=O)Nc1cccc(C(=O)O)c1,1%,11%,15%,18,3.0,-1.8%,4
Cc1ccc(NC(=O)CCC(=O)N/N=C/c2coc3ccccc3c2=O)cc1,?,16%,3%,3,1.6,4.8%,.
CCn1ncc(C2=NOC(C(=O)Nc3cccc(O)c3)C2)c1C (stereo not drawn),0%,3%,7%,4,-2.2,0.9%,.
COCCNC(=O)C1CC(=O)N(C2CCCCC2)C1 (stereo not drawn),-3%,25%,11%,-2,2.7,-1.1%,7
Cc1cc(OCC(=O)NCc2ccccn2)c2c(C)c(C)c(=O)oc2c1,0%,5%,-16%,-6,.,4.0%,-8
Cn1c(-c2ccc3c(c2)OCO3)cc(=O)c2ccccc21,.,13%&16%,1%,20,1.4,4.3%,-7
CCCCCn1c(=N)c(S(=O)(=O)c2ccc(Br)cc2)cc2c(=O)n3cccc(C)c3nc21,-30%,10%,8%,-7,?,-3.3%,1

# Single records (already shown):
# Record of Fc1ccccc1N1CCN(CC2CC3C=CC2C3)CC1 (stereo not drawn) : gsp ag = -28%; Sfp inh = -13%; gsp antag = 5%; TRPV1 PAM = -11; Menin MLL FP FL = -0.8; ClpP mod = 0.5%; CtBP-E1A blk = 7
# Record of CN1C(=O)c2ccccc2C(C(=O)O)C1c1cccc(F)c1 (stereo not drawn) : gsp ag = -17%; Sfp inh = 9%; gsp antag = 13%; TRPV1 PAM = 9; Menin MLL FP FL = -1.7; ClpP mod = -0.1%; CtBP-E1A blk = 5
# Record of Cc1ccc(Cl)cc1NC(=O)CSc1nncn1-c1ccccn1 : gsp ag = -7%[15.4 µM]; Sfp inh = 8%; gsp antag = 0%; TRPV1 PAM = 22; Menin MLL FP FL = 1.4; ClpP mod = 0.8%; CtBP-E1A blk = 13

# This is a random part of the collection, and some 5.3% of all compounds hit somewhere here.
